# FGF22 binding: FGF22 (human) thermal shift binding; Q9HCT0; recombinant FGF22 thermal shift, SYPRO orange fluorescence; percent of sucrose octasulfate shift, DMSO zero; calls only at 9.99 µM; 340,000 tested, 1.5% active;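 active = melting point raised past a set limit in the mean and every replicate; inconclusive = no clear call; three in four hits are not shown here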
# Target sequence (Q9HCT0 whole entry, looked up): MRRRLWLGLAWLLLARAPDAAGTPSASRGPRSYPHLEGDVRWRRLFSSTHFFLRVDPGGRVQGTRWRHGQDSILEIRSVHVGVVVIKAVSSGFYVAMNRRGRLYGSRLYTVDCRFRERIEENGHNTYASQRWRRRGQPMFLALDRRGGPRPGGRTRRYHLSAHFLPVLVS
# MLL AF4-AF9 inh: inhibitors of human MLL-AF4/AF9 interaction. P42568. AlphaScreen, biotin-AF4 peptide binding to FLAG-AF9. inhibition, % at 10 µM. 350,000 tested, 0.47% active. AID 651704;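 active = every replicate reaching a set inhibition limit, whatever the replicate mean, cut at about 25% in these data; inconclusive = mean inhibition reaches that limit but some replicates miss it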;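 note: 0% = plate neutral control median and 100% = total signal loss; the record names both 10 and 1 µM as test concentration; the first replicate is given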
# Target sequence (P42568 whole entry, looked up): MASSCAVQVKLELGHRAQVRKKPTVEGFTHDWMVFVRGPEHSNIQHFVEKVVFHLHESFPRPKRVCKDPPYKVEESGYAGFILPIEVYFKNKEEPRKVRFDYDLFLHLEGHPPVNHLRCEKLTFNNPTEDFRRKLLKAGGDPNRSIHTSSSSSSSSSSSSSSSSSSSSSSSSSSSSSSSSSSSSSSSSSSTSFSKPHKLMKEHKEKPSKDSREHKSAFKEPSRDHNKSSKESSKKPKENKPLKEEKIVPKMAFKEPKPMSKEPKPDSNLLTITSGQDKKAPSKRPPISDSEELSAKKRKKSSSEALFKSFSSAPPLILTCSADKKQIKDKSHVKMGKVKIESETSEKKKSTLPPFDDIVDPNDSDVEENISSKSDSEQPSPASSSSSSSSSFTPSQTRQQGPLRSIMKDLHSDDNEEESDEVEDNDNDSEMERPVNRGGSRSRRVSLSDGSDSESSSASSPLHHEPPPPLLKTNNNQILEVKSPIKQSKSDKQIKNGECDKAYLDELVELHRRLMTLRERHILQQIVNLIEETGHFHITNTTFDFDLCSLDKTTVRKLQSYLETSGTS
# rRNA inh HTS: inhibits bacterial ribosomal RNA function over humanized ribosomes; E. coli WT GFP vs humanized-ribosome RFP mutants, fluorescence, 24 h; stronger effect = lower value; DMSO median 0, no signal -100; GFP signal change (wild-type ribosome), % (concentration not given with the values); 350,000 tested, 1.6% active; AID 720706;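 active = significant combined selectivity score with lowered wild-type GFP, culture density cut under 30%, mutant RFP and density less affected; inactive = any of these conditions unmet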; note: one replicate is shown; some compounds called inactive have numbers as strong as hits
# ALR inh: blocks human ALR sulfhydryl oxidase activity. 290,000 tested, 3.8% active. AID 485317. purified ALR, DTT oxidation, H2O2 HRP-luminol luminescence. P55789. inhibition, % (test concentration not listed);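 active = mean and each replicate at 75% or more; inconclusive = only one of the two met; inactive = neither met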;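 note: stock transfer was 7.5 nL into about 7.5 µL; 0% = neutral wells and 100% = wells with inactivated enzyme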
# Target sequence (P55789 whole entry, looked up): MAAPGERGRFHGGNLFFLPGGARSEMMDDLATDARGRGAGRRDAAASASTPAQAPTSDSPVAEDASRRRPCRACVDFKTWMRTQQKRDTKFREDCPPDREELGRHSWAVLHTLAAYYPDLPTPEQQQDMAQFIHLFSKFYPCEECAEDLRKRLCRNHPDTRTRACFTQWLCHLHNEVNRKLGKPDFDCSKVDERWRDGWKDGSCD
# Ecoli growth: blocks Escherichia coli growth; OD600, 23 h; stronger effect = lower value; 330,000 tested, 0.21% active; AID 1053175; OD600 absorbance (concentration not given with the values);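 active = OD600 absorbance below the run mean of sample wells minus 3.6 SD, in any replicate, cut at about 0.56 in these data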;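 note: stock transfer was 300 nL into about 60 µL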
# HNF4A DNA FP: change in binding of human HNF4 alpha to DNA; AID 1224865; activity change, % at 10 µM; 360,000 tested, 0.3% active; P41235; HNF4a-FITC DNA binding, fluorescence polarization, 1 h; in the data active = activity change above about 30%, passing the limit was not always enough;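 note: controls were the assay level and a saturating level of protein; the project sought stronger binding though the title names inhibitors; some compounds called inactive have numbers as strong as hits; positive values seem to mean higher polarization but the record does not say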
# Vif TR-FRET: HIV-1 Vif–A3G interaction blockers – biochemical, TR-FRET, GST-Vif 1-94, biotin-A3G peptide, dose response retest, primary screen (AID 1117319) | TR-FRET GST-Vif / biotin-A3G peptide binding; higher % means a stronger effect; test concentration not given here; strong numbers were not always called active | inhibition, %, or IC50 in µM where a hit was titrated | 260,000 tested, 0.57% active;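 active = above the screen mean plus three standard deviations and confirmed in dose response; inconclusive = results disagree or hit not tested in dose response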;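 note: Vif residues 1-94 fused to GST binding biotinylated APOBEC3G peptide 110-148; 0% = full assay without inhibitor and 100% = GST in place of GST-Vif; retest series ran down from 100 µM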
# rRNA inh HTS OD600: further read-out of rRNA inh HTS, marked with its call; OD600 change, %; measured here: OD600 growth;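 optical density of the mix in the first replicate; 0 = DMSO median and -100 = no signal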
# rRNA inh HTS RFP: further read-out of rRNA inh HTS, marked with its call; RFP signal change, %; measured here: RFP humanized mutant strains;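 first replicate; 0 = DMSO median and -100 = no signal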
# An asterisk follows results filed as active; i = inactive; ? = inconclusive; . = no result given. Not all compounds are listed. The share of hits here may be higher or lower than overall.
# Every second line gives: Vif TR-FRET | HNF4A DNA FP | FGF22 binding | rRNA inh HTS | rRNA inh HTS RFP | ALR inh | rRNA inh HTS OD600 | Ecoli growth | MLL AF4-AF9 inh
1: Cc1ccc(Cc2cnc(NC(=O)C3CCCO3)s2)cc1 (centres undefined)
    -3% | 0.9 | . | . | . | . | . | 0.78 | .
2: CCN(CC)S(=O)(=O)c1cccc(-c2nnc(SCCOc3ccc(Cl)cc3)o2)c1
    0% | 0.8 | . | . | . | -6 | . | 0.77 | .
3: CCC(=O)N(C)C[C@@H]1Oc2ncc(C#CC3(O)CCCC3)cc2C(=O)N([C@H](C)CO)C[C@H]1C
    . | . | i | 1 | -1.5 | . | 5 | . | -2.9
4: O=C(COC(=O)CCC(=O)c1ccc2c(c1)OCCO2)NCc1ccc2c(c1)OCO2
    7% | 7.4 | . | . | . | . | . | 0.73 | .
5: Cc1sc2nc(CN3CCCC3)nc(N3CCN(S(=O)(=O)c4cccs4)CC3)c2c1C
    -3% | 7.4 | . | . | . | -1 | . | 0.68 | .
6: O=C(Nc1nnc(-c2ccc(F)cc2)s1)C1CCN(S(=O)(=O)c2ccc(Cl)cc2)CC1
    ? | 1.0 | . | . | . | 2 | . | 0.7 | .
7: Cc1cccc(S(=O)(=O)NCC2CCCO2)c1 (centres undefined)
    13% | 0.3 | . | . | . | 2 | . | 0.7 | .
8: COc1ccccc1-c1ccc2c(c1)O[C@H](CN(C)C)[C@@H](C)CN([C@@H](C)CO)S2(=O)=O
    . | . | i | 1 | -2.1 | . | 0 | . | -2.2
9: Cn1c(=O)c2c(nc(NCCCO)n2C/C=C/c2ccccc2)n(C)c1=O
    -2% | -0.1 | . | . | . | -7 | . | 0.78 | .
10: CCCNS(=O)(=O)c1ccc(C(=O)NCC2CCCO2)cc1 (centres undefined)
    3% | -5.0 | . | . | . | -8 | . | 0.65 | .
11: O=C(OCc1ccccc1)N1CCC2CC1c1cc(N3CCOCC3)ccc12 (centres undefined)
    -1% | -6.0 | i | -40 | -13 | . | -68 | . | 10.0
12: CC1(C)Cc2ccccc2-c2nnc(SCC(=O)Nc3nc4ccccc4s3)n21
    27% | -2.3 | . | . | . | -24 | . | 0.71 | .
13: CC(=O)N1CCN(CC(O)Cn2c3ccccc3c3ccccc32)CC1 (centres undefined)
    -4% | -2.6 | i | -15 | 1.8 | -35 | -16 | 0.7 | -6.0
14: Cc1ccc(C)c(OCc2cc(C(=O)N3CCN(c4cnccn4)CC3)no2)c1
    5% | 0.0 | i | -48 | -7.0 | -13 | -55 | 0.65 | 3.4
15: Cn1cccc1C(=O)C(=O)Nc1ccc(Cl)cc1
    12% | -4.1 | . | . | . | 1 | . | 0.76 | .
16: Cc1cccc2cc(COC(=O)C3CCCCC3)c(=O)[nH]c12
    -6% | -10 | . | . | . | -6 | . | 0.68 | .
17: Cc1cccc(CSc2nnc(N)n2-c2ccccc2)c1
    8% | 0.1 | . | . | . | -5 | . | 0.66 | .
18: C/C(=N\Nc1ccccn1)c1ccc2c(c1)OCO2
    . | 6.1 | i | -1 | -1.5 | 4 | 0 | . | 14
19: COc1ccc(N2CCN(S(=O)(=O)Cc3ccccc3)CC2)cc1
    25% | 1.6 | . | . | . | -15 | . | 0.7 | .
20: O=C(C[C@@H]1CC[C@H]2[C@@H](COC[C@@H](O)CN2C(=O)c2ccc(F)cc2)O1)NCCCN1CCOCC1
    . | . | i | 8 | -5.9 | . | 16 | . | -26
21: Cc1cc(=O)n(Cc2ccc(OC(C)C)cc2)c(=S)[nH]1
    -5% | 5.0 | i | 6 | -5.4 | 13 | -1 | 0.66 | -3.9
22: COc1ccccc1NC(=O)C(=O)NCC1CCCN1S(=O)(=O)c1cccs1 (centres undefined)
    . | -1.1 | i | -3 | -0.2 | 9 | -9 | . | -8.9
23: COC(=O)c1c(C)[nH]c(C(=O)COC(=O)c2c(C)noc2C)c1C
    . | -4.9 | i | 7 | 3.7 | -5 | 10 | 0.71 | 3.6
24: O=c1[nH]c(/C=C\c2cccc(F)c2)nc(O)c1[N+](=O)[O-]
    . | -2.0 | i | 22 | 6.8 | 91* | 23 | 0.62 | -2.3
25: COc1ccc(-c2nc(-c3cccnc3)no2)cc1OC
    -2% | -1.6 | i | 5 | 1.0 | 1 | 1 | 0.69 | .
26: Cc1cccc(OCC(=O)NCC(c2cccs2)N2CCOCC2)c1 (centres undefined)
    -6% | 8.7 | i | -2 | 0.6 | -1 | -2 | 0.68 | -1.1
27: CCn1c(SCC(=O)NNC(=O)Cc2ccccc2)nnc1-c1ccccc1
    7% | -2.7 | . | . | . | . | . | 0.69 | .
28: Cc1cc(NC(=S)N(CCCN2CCN(C)CC2)Cc2ccco2)ccc1Cl
    ? | 1.4 | i | 3 | 2.6 | . | -14 | 0.72 | 9.5
29: COc1ccc(N2CCN(Cc3cc(=O)oc4ccc(Cl)cc34)CC2)cc1
    1% | 2.1 | . | . | . | -23 | . | 0.73 | .
30: Cc1ccc2[nH]c(C(=O)N3CCC(C(N)=O)CC3)cc2c1
    . | 2.6 | i | 8 | -1.7 | 10 | 10 | 0.67 | -6.0

# Next compounds:
# Every second line gives: Vif TR-FRET | HNF4A DNA FP | FGF22 binding | rRNA inh HTS | rRNA inh HTS RFP | ALR inh | rRNA inh HTS OD600 | Ecoli growth | MLL AF4-AF9 inh
31: C[C@@H]1CCCCO[C@@H](CN(C)C)[C@@H](C)CN([C@H](C)CO)C(=O)c2cc(NC(=O)Nc3ccc(F)cc3)ccc2O1
    . | . | i | 3 | -2.2 | . | 8 | . | 1.1
32: Cc1cc(C)c(S(=O)(=O)N2CCN(C(=O)CN3C(=O)NC4(CCCC4)C3=O)CC2)c(C)c1
    . | -3.3 | i | 8 | 2.9 | -7 | 4 | 0.66 | -4.8
33: COc1ccccc1CNC(=O)C1CCCN1S(=O)(=O)c1cccc2cccnc12 (centres undefined)
    -7% | 2.5 | i | -3 | -0.5 | -35 | 2 | 0.72 | -18
34: CC(C)CNC(=O)C1CCN(S(=O)(=O)c2ccc(-n3cnnn3)cc2)CC1
    1% | -4.1 | i | 5 | 0.1 | . | 7 | 0.73 | 0.1
35: COc1ccc(S(=O)(=O)N(C)C[C@@H]2OCCCC[C@H](C)Oc3ccc(NS(C)(=O)=O)cc3C(=O)N([C@@H](C)CO)C[C@H]2C)cc1
    . | . | i | -5 | 2.3 | . | 0 | . | -1.2
36: CN(C)C(=O)C[C@@H]1CC[C@@H]2[C@@H](COc3ccc(NC(=O)c4ccc(F)cc4)cc3C(=O)N2C)O1
    . | . | i | 2 | -0.7 | . | 3 | . | -4.1
37: CCOc1cc(C(=O)Nc2cc(C)on2)cc(OCC)c1OCC
    10% | -3.4 | . | . | . | 4 | . | 0.71 | .
38: C[C@@H]1CN([C@@H](C)CO)C(=O)c2cc(NC(=O)C3CCCCC3)ccc2O[C@@H](C)CCCCO[C@@H]1CN(C)C(=O)Nc1cccc2ccccc12
    . | . | i | -8 | -0.8 | . | 1 | . | -1.6
39: O=C(NCCCNC(=O)c1cc(Cl)ccc1Cl)c1ccccn1
    . | -1.4 | i | 6 | -0.8 | -12 | -4 | 0.65 | -1.1
40: O=C(C[C@@H]1CC[C@H]2[C@@H](COC[C@@H](O)CN2Cc2ccccc2)O1)NCCCN1CCOCC1
    . | . | i | -1 | -2.1 | . | -3 | . | -2.0
41: COc1ccc(NC(=O)Nc2ccc3c(c2)C(=O)N([C@@H](C)CO)C[C@@H](C)[C@@H](CN(C)Cc2ccc(C(=O)O)cc2)O3)cc1
    . | . | i | 3 | -0.6 | . | 4 | . | -1.8
42: NC(=O)c1cc([N+](=O)[O-])ccc1NCc1cnccn1
    . | 2.4 | i | 6 | -3.7 | -16 | 4 | 0.71 | -1.8
43: CCN(CC)C(=O)[C@H]1CC(CC(=O)NCCCn2ccnc2)C(=O)N2CCc3c([nH]c4ccccc34)[C@]12C (some centres undefined)
    -1% | 2.3 | i | 10 | -1.1 | 1 | 24 | 0.71 | -0.5
44: COc1ccccc1CN=c1c([N+](=O)[O-])nn(-c2ccc3c(c2)OCCO3)n1O
    24% | -4.4 | i | 2 | 5.7 | -24 | -3 | 0.71 | 13
45: COc1ccc(NCc2cc3ccccc3[nH]c2=O)cc1
    25% | 1.0 | . | . | . | 45 | . | 0.71 | .
46: CC(=O)c1cccc(S(=O)(=O)N2CCn3cccc3C2C)c1 (centres undefined)
    3% | 2.4 | i | 5 | 2.5 | 1 | 9 | 0.71 | 1.5
47: O=C(O)c1ccc2oc(=O)c(S(=O)(=O)c3ccc(F)cc3)cc2c1
    1% | -0.1 | i | -5 | 1.1 | . | 0 | 0.69 | -26
48: CSc1nncc(/C(C)=N\Nc2ccccc2)n1
    -3% | -14 | . | . | . | -1 | . | . | .
49: COc1ccc(C(=O)N(C)C(C)c2ccon2)cc1OC1CCN(C(C)C)CC1 (centres undefined)
    . | -2.0 | i | 5 | -0.7 | 3 | 10 | 0.71 | -0.5
50: CCOc1ccc(OCC(=O)Nc2cc(Cl)ccc2-n2cncn2)cc1
    6% | 1.3 | i | 7 | -0.8 | . | 10 | . | 1.7
51: CCc1ccc(C(=O)Nc2nc(C)cs2)s1
    -2% | -0.1 | i | 2 | -2.7 | 15 | -13 | 0.72 | 2.1
52: OCC1OC(n2cnc3c(/C=C(\O)c4ccccc4)ncnc32)C(O)C1O (centres undefined)
    -7% | -0.8 | i | 7 | 1.3 | . | 2 | . | 6.6
53: COCc1cc(C)nc(SCC(=O)Nc2ccc3c(c2)OCO3)c1C#N
    4% | 2.6 | . | . | . | -10 | . | 0.69 | .
54: COC(=O)C1=C(C)NC(=S)NC1c1ccc(OCC(=O)N2CCCCC2)c(OC)c1 (centres undefined)
    -22% | -2.9 | i | 5 | 0.3 | -5 | 7 | 0.7 | -0.8
55: CCOC(=O)c1sc(NC(=O)/C=C/c2c(F)cccc2Cl)nc1C
    ? | 34* | i | 7 | 1.6 | 3 | 17 | 0.71 | 0.3
56: C[C@@H]1CN([C@@H](C)CO)C(=O)c2c(c3ccccc3n2C)-c2ccccc2CO[C@H]1CN(C)Cc1cccc(C(F)(F)F)c1
    . | . | i | -1 | 0.3 | . | -1 | . | 0.8
57: CC(C)NC(=S)NNC(=O)C12CC3CC(CC(C3)C1)C2
    5% | 4.2 | . | . | . | 7 | . | 0.65 | .
58: COc1cc(-c2noc(C)n2)cc(OC)c1OC
    -11% | 0.9 | i | -5 | -0.2 | -10 | -7 | 0.66 | 0.0
59: CCc1ccc2c(CN3CCN(S(=O)(=O)c4ccccc4F)CC3)cc(=O)oc2c1
    5% | 2.4 | i | 0 | 8.8 | 1 | 2 | 0.75 | 0.0
60: Cc1cc(NNC(=O)c2cccc(C(F)(F)F)c2)nc2c1c(C)nn2C
    -9% | -2.2 | i | 4 | 1.4 | -7 | 11 | 0.7 | -20
61: COC(=O)[C@]1(C)N[C@H](CN(C)S(=O)(=O)c2ccc(-c3ccccc3)cc2)[C@@H]2C(=O)N(Cc3ccccc3)C(=O)[C@@H]21
    9% | -0.9 | i | 5 | -2.8 | . | 2 | 0.72 | -0.5
62: COc1ccc(NC(=O)Nc2ccc3c(c2)C(=O)N([C@H](C)CO)C[C@H](C)[C@H](CN(C)C(=O)Nc2ccc(C(F)(F)F)cc2)OCCCC[C@H](C)O3)cc1
    . | . | i | 0 | -2.0 | . | 6 | . | -13

# Assay outcomes deposited in PubChem by several laboratories.
